Compound activity deposited in PubChem BioAssay by Broad Institute.
c-Myc SMM: binds human c-Myc on microarray; calls only; small molecule microarray, His-c-Myc binding, anti-His fluorescence; P01106; 17,000 compounds, 1.5% hits;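 active = spot fluorescence over background with P-value below 7% in all four replicate spots, showing protein binding; compounds were printed on slides so no solution concentration is given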;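 also: score is binary with 100 for all four spots passing and 0 otherwise; about 2 pmol printed per array spot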
p53 mut binder: binds human mutant p53 on microarray; small molecule microarray binding, anti-GST fluorescence; calls only; 17,000 compounds, 0.4% hits; AID 624136;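 active = compounds whose four printed spots each glow above background more than chance allows, each with a p-value under 7%; compounds were printed on slides so no solution concentration is given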;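 also: about 2 pmol printed per array spot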
STAT3 binder: STAT3 (human) binding | P40763 | Small molecule microarray, His-STAT3 binding, anti-His fluorescence | calls only | 17,000 compounds, 0.2% hits | AID 624138;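 active = compounds whose four printed spots each show fluorescence over background unusually high for their array block, chance value under 7%; compounds were printed on slides so no solution concentration is given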;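 also: about 2 pmol printed per array spot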
Target sequence (P40763 whole entry, looked up): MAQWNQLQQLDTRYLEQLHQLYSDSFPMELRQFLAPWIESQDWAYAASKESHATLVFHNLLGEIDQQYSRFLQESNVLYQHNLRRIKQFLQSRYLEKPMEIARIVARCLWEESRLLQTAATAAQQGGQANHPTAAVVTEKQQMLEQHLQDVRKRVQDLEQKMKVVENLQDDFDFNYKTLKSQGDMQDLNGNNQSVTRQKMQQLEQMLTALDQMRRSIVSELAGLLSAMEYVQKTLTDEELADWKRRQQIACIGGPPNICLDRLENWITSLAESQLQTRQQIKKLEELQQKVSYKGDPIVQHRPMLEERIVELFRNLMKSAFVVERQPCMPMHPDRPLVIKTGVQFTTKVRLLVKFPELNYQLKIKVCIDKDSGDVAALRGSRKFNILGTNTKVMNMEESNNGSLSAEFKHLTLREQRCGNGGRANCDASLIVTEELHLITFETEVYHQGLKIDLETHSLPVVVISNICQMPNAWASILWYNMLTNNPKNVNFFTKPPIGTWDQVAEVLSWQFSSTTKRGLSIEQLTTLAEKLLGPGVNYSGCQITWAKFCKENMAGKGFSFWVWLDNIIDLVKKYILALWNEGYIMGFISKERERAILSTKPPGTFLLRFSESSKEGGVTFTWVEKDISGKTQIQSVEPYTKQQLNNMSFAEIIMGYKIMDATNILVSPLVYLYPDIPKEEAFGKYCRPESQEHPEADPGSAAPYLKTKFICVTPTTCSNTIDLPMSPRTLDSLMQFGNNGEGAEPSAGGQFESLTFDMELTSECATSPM
ID4 SMM: ID4 (human) binding; P47928; small molecule microarray, Flag-ID4 binding, fluorescence F/B; calls only; 31,000 compounds, 1.2% hits;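 active = spot signal over background at p below 0.07 in all four prints; compounds were printed on slides so no solution concentration is given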;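 also: a binder raises fluorescence above local background on the spot; about 2 pmol printed per array spot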
Target sequence (P47928 whole entry, looked up): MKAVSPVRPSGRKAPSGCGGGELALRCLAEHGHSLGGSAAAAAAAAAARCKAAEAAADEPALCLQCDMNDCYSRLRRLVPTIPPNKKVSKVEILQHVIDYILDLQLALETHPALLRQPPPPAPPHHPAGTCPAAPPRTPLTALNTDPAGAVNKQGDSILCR
Calls only; i = inactive; / = no result given; + = active, no number. These rows are one share of the data; count on the stated rates, not on these rows.

SMILES | c-Myc SMM | p53 mut binder | STAT3 binder | ID4 SMM
CC(C)NC(=O)N(C)C[C@@H]1OCCCC[C@@H](C)Oc2ccc(NC(=O)Nc3ccc(C(F)(F)F)cc3)cc2C(=O)N([C@@H](C)CO)C[C@H]1C | i | i | i | i
C[C@@H]1CN([C@H](C)CO)C(=O)Cc2cc(NC(=O)NC3CCCCC3)ccc2O[C@H]1CN(C)C(=O)Nc1ccc2c(c1)OCO2 | i | i | i | i
C[C@@H]1CN([C@H](C)CO)C(=O)c2cccc(NC(=O)Nc3ccc(F)cc3)c2O[C@H]1CN(C)Cc1ccc(C(=O)O)cc1 | i | i | i | i
Cn1c(=O)c2c(nc(SCc3nn[nH]n3)n2Cc2ccccc2)n(C)c1=O | i | i | i | i
C=CC1c2ccccc2/C=C(C(=O)OC)\C(C(=O)OC)=C/N1Cc1ccc(OC)cc1 (stereo unspecified) | i | i | i | i
COc1ccc(OC)c(NC(=O)COc2ccc3c4c(c(=O)oc3c2)CCC4)c1 | i | i | i | i
CC(Oc1ccc(C(=O)NC2CCCCC2)cc1)C(=O)Nc1ccccc1C(F)(F)F (stereo unspecified) | i | i | i | i
C[C@@H]1CN([C@@H](C)CO)C(=O)CCCn2cc(nn2)CO[C@@H]1CN(C)C(=O)Nc1cccc2ccccc12 | i | i | i | i
O=c1c2ccccc2nc(SCc2cccc3nsnc23)n1-c1ccccc1 | i | i | i | i
COc1ccc(S(=O)(=O)Nc2ccc3c(c2)C(=O)N([C@H](C)CO)C[C@@H](C)[C@H](CN(C)CC2CC2)O3)cc1 | i | i | i | i
Cc1noc(C)c1S(=O)(=O)Nc1ccc2c(c1)C(=O)N([C@@H](C)CO)C[C@H](C)[C@@H](CN(C)C(=O)NC(C)C)OCCCC[C@@H](C)O2 | i | i | i | i
C[C@H](CO)N1C[C@H](C)[C@H](CN(C)S(=O)(=O)c2cn(C)cn2)Oc2ccc(NC(=O)Nc3cccc4ccccc34)cc2CC1=O | i | i | i | i
COc1ccc(-c2cn(CCNC(=O)[C@H](Cc3ccccc3)NS(=O)(=O)c3ccc(C)cc3)nn2)cc1OC | i | i | i | +
CCCN(C)C[C@H]1OCCCC[C@@H](C)Oc2ccc(NS(=O)(=O)c3ccc(OC)cc3)cc2C(=O)N([C@H](C)CO)C[C@@H]1C | i | i | i | i
C[C@H]1CN([C@@H](C)CO)C(=O)c2cccc(NS(=O)(=O)c3cn(C)cn3)c2O[C@H]1CN(C)C(=O)Nc1cccc2ccccc12 | i | i | i | i
COc1ccc(CN(C)C[C@@H]2Oc3ccc(NC(=O)c4ccncc4)cc3C(=O)N([C@H](C)CO)C[C@H]2C)cc1 | i | i | i | i
CC(=O)c1ccc(NC(=O)CSc2nnc3n(C)c(=O)c4c5c(sc4n23)CCCC5)cc1 | i | i | i | i
COc1ccc(-c2nnc3c4ccccc4c(C)nn23)cc1S(=O)(=O)NCc1ccccc1 | i | i | i | i
Cc1noc(C)c1S(=O)(=O)Nc1ccc2c(c1)C(=O)N([C@@H](C)CO)C[C@@H](C)[C@@H](CN(C)C(=O)CCC(F)(F)F)OCCCC[C@@H](C)O2 | i | i | i | i
C[C@H]1CN([C@@H](C)CO)C(=O)Cc2cc(NC(=O)CCN3CCOCC3)ccc2O[C@@H]1CN(C)Cc1ccncc1 | i | i | i | i
CC1(C)Cc2c(c(N3CCOCC3)nc3sc4c(SCc5nc6ccccc6[nH]5)ncnc4c23)CO1 | i | i | i | i
C[C@@H]1CN([C@@H](C)CO)C(=O)c2cc(NS(=O)(=O)c3ccc(Cl)cc3)ccc2O[C@@H](C)CCCCO[C@@H]1CN(C)C | i | i | i | i
CCC(CCC(=O)Nc1ccccc1[N+](=O)[O-])C(=O)O (stereo unspecified) | i | i | i | i
O=C(O)C1=C[C@@H](c2ccc(Br)cc2)C[C@@H](OCc2ccc(CO)cc2)O1 | i | i | i | i
C[C@@H]1CCCCO[C@@H](CN(C)C(=O)Nc2ccc(F)cc2)[C@@H](C)CN([C@@H](C)CO)C(=O)c2cc(NC(=O)CCCN(C)C)ccc2O1 | i | i | i | /

As a working copy, part of the list above:
SMILES | c-Myc SMM | p53 mut binder | STAT3 binder | ID4 SMM
CCC(CCC(=O)Nc1ccccc1[N+](=O)[O-])C(=O)O (stereo unspecified) | i | i | i | i
O=C(O)C1=C[C@@H](c2ccc(Br)cc2)C[C@@H](OCc2ccc(CO)cc2)O1 | i | i | i | i
C[C@@H]1CCCCO[C@@H](CN(C)C(=O)Nc2ccc(F)cc2)[C@@H](C)CN([C@@H](C)CO)C(=O)c2cc(NC(=O)CCCN(C)C)ccc2O1 | i | i | i | /

A draw from above in order of SMILES length, descending:
SMILES | c-Myc SMM | p53 mut binder | STAT3 binder | ID4 SMM
C[C@H]1CN([C@@H](C)CO)C(=O)Cc2cc(NC(=O)CCN3CCOCC3)ccc2O[C@@H]1CN(C)Cc1ccncc1 | i | i | i | i
Cn1c(=O)c2c(nc(SCc3nn[nH]n3)n2Cc2ccccc2)n(C)c1=O | i | i | i | i
O=c1c2ccccc2nc(SCc2cccc3nsnc23)n1-c1ccccc1 | i | i | i | i

(cont.)
SMILES | c-Myc SMM | p53 mut binder | STAT3 binder | ID4 SMM
COc1cc2c(cc1OC)CN(C(=O)[C@@H]1[C@H]3C(=O)O[C@H](c4ccccc4)[C@H](c4ccccc4)N3[C@H](c3ccc(O)cc3)[C@@]13C(=O)Nc1ccc(C#CC4=CCCCC4)cc13)CC2 | i | i | i | /
CNC[C@@H]1Oc2ccc(NC(=O)Nc3ccc4c(c3)OCO4)cc2CC(=O)N([C@@H](C)CO)C[C@@H]1C | i | i | i | i
COc1ccc(NC(=O)N(C)C[C@@H]2Oc3c(NS(=O)(=O)c4cccs4)cccc3C(=O)N([C@H](C)CO)C[C@H]2C)cc1 | i | i | i | i
COc1cc(NC(=O)COC(C)=O)cc(OC)c1OC | i | i | i | i
O=C1O[C@@H](c2ccccc2)[C@@H](c2ccccc2)N2[C@@H](c3ccc(O)cc3)[C@]3(C(=O)Nc4ccc(C#CC5(O)CCCCCC5)cc43)[C@@H](C(=O)N3CCCCCCC3)[C@H]12 | i | i | + | i
C=CCOC(=O)C1=C[C@H](c2cn(C(C)=O)c3ccccc23)C[C@H](OCc2ccc(CO)cc2)O1 | i | i | i | i
CC(C)NC(=O)Nc1ccc2c(c1)C(=O)N([C@H](C)CO)C[C@H](C)[C@H](CN(C)Cc1ccncc1)OCCCC[C@H](C)O2 | i | i | i | i
C[C@@H]1CCCCO[C@H](CN(C)S(=O)(=O)c2cn(C)cn2)[C@@H](C)CN([C@@H](C)CO)C(=O)c2cc(NS(=O)(=O)c3cn(C)cn3)ccc2O1 | i | i | i | i
CNC[C@H]1Oc2ccc(NS(=O)(=O)c3c(C)noc3C)cc2CC(=O)N([C@@H](C)CO)C[C@H]1C | i | i | i | i
C[C@@H]1CN([C@H](C)CO)C(=O)CCCn2nncc2CO[C@@H]1CN(C)Cc1ccc2c(c1)OCCN2C | i | i | i | i
COc1ccccc1CN1CCN(Cc2ccc(OC)c(OC)c2OC)CC1 | i | i | i | i
C[C@@H]1CN([C@@H](C)CO)C(=O)c2cccc(NC(=O)C3CCOCC3)c2O[C@@H]1CN(C)C(=O)Nc1ccc(C(F)(F)F)cc1 | i | i | i | i
C[C@@H]1CN([C@@H](C)CO)C(=O)c2cc(NC(=O)C3CCCCC3)ccc2O[C@@H](C)CCCCO[C@@H]1CN(C)C(=O)C1CCCCC1 | + | i | i | /
Cc1noc(C)c1NC(=O)N(C)C[C@@H]1Oc2ccc(NC(=O)CCC(F)(F)F)cc2CC(=O)N([C@H](C)CO)C[C@@H]1C | i | i | i | i
Nc1cc(N)nc(SCC(=O)Nc2cccc(Cl)c2Cl)n1 | i | i | i | i
COc1ccc(CN(C)C[C@H]2Oc3ccc(NC(=O)CCN4CCOCC4)cc3C(=O)N([C@H](C)CO)C[C@@H]2C)cc1 | i | i | i | i
COc1ccc(NC(=O)CN(C)S(=O)(=O)c2ccccc2)cc1OC | i | i | i | i
COc1cc(OC)c(C(=O)CCCN2CCCC2)c(OC)c1 | i | i | i | i
O=C(CSc1nnnn1-c1ccccc1)Nc1cc(Cl)cc(Cl)c1 | i | i | i | i
O=C(O)CCC(=O)Nc1ccc(Br)c2cccnc12 | + | i | i | i
C[C@@H]1CN([C@@H](C)CO)C(=O)Cc2cc(NC(=O)Cc3ccccc3)ccc2O[C@H]1CN(C)S(=O)(=O)c1cn(C)cn1 | i | i | i | i
COc1ccc(CN(C)C[C@H]2OCc3cnnn3CCCC(=O)N([C@H](C)CO)C[C@@H]2C)cc1 | i | i | i | /
C[C@H](CO)N1C[C@H](C)[C@@H](CN(C)Cc2ccc(C(=O)O)cc2)Oc2c(NC(=O)c3ccc(-c4nccs4)cc3)cccc2C1=O | i | i | i | i
C[C@@H]1CN([C@H](C)CO)C(=O)c2cccc(NS(=O)(=O)c3ccc(F)cc3)c2O[C@H]1CN(C)Cc1ccc(C(=O)O)cc1 | i | i | i | /
Cc1cc(C)nc(N(C#N)CC(=O)N2c3ccccc3CCc3ccccc32)n1 | i | i | i | i
SMILES | c-Myc SMM | p53 mut binder | STAT3 binder | ID4 SMM
C[C@@H]1CN([C@@H](C)CO)C(=O)c2cc(NC(=O)Cc3cn(C)c4ccccc34)ccc2O[C@H]1CN(C)C(=O)Nc1ccccc1 | i | i | i | i
Cc1noc(C)c1S(=O)(=O)N(C)C[C@H]1Oc2ccc(NC(=O)Nc3ccc(C(F)(F)F)cc3)cc2CC(=O)N([C@@H](C)CO)C[C@H]1C | i | i | i | i
COc1ccc(S(=O)(=O)Nc2ccc3c(c2)C(=O)N([C@H](C)CO)C[C@@H](C)[C@H](CN(C)S(=O)(=O)c2ccccc2)OCCCC[C@H](C)O3)cc1 | i | i | i | /
O[C@@H](Cc1ccccc1)[C@@H](/C=C/C1CC1)N(CC#Cc1ccccc1)Cc1ccccc1Br | i | i | i | i
C[C@@H]1CN([C@H](C)CO)C(=O)Cc2cc(NC(=O)Cc3cn(C)c4ccccc34)ccc2O[C@H]1CN(C)Cc1ccc(C(F)(F)F)cc1 | i | i | i | /
CC(C)NC(=O)Nc1ccc2c(c1)C(=O)N([C@@H](C)CO)C[C@H](C)[C@@H](CN(C)CC1CCCCC1)OCCCC[C@@H](C)O2 | i | i | i | /
C[C@@H]1CN([C@@H](C)CO)C(=O)c2cc(NC(=O)Cc3ccccc3)ccc2O[C@@H]1CN(C)C(=O)NC1CCCCC1 | i | i | i | i
Cc1ccc(N(C(C)C(=O)Nc2ccc(I)cc2)S(C)(=O)=O)cc1 (stereo unspecified) | i | i | i | i
C[C@@H]1CN([C@H](C)CO)C(=O)c2cccc(NS(=O)(=O)c3cn(C)cn3)c2O[C@@H]1CN(C)S(=O)(=O)c1cn(C)cn1 | i | i | i | i
NC(N)=Nc1ccc(Cl)cc1 | i | i | i | i
Cc1noc(C)c1NC(=O)Nc1ccc2c(c1)C(=O)N([C@H](C)CO)C[C@@H](C)[C@H](CN(C)C)OCCCC[C@@H](C)O2 | i | i | i | i
C[C@@H]1CN([C@@H](C)CO)C(=O)Cc2cc(NC(=O)Cc3ccccc3)ccc2O[C@@H]1CN(C)Cc1ccc(C(F)(F)F)cc1 | i | i | i | i
C[C@H]1CN([C@@H](C)CO)C(=O)Cc2cc(NS(=O)(=O)c3cccs3)ccc2O[C@H]1CN(C)C(=O)Nc1ccc2c(c1)OCO2 | i | i | i | i
C[C@@H]1CCCCO[C@H](CN(C)C(=O)CCC(F)(F)F)[C@@H](C)CN([C@@H](C)CO)C(=O)c2cc(N(C)C)ccc2O1 | i | i | i | i
Cc1cccc(NC(=O)CC2OCCN(Cc3ccccc3)C2=O)c1 (stereo unspecified) | i | i | i | i
Cc1nc([N+](=O)[O-])c(Sc2nc3ccccc3[nH]2)n1Cc1ccccc1 | i | i | i | i
Cc1ccc(S(=O)(=O)Nc2ccc3c(c2)C(=O)N([C@@H](C)CO)C[C@@H](C)[C@@H](CN(C)Cc2ccc(Oc4ccccc4)cc2)O3)cc1 | i | i | i | /
C[C@H](CO)N1C[C@H](C)[C@@H](CN(C)Cc2ccc(Oc3ccccc3)cc2)OCc2cnnn2CCCC1=O | i | i | i | i
COc1ccc(NC(=O)Nc2cccc3c2O[C@H](CN(C)C)[C@H](C)CN([C@@H](C)CO)C3=O)cc1 | i | i | i | i
C[C@@H]1CCCCO[C@@H](CN(C)CC2CCCCC2)[C@H](C)CN([C@H](C)CO)C(=O)c2cc(NS(C)(=O)=O)ccc2O1 | i | i | i | /
C[C@@H]1CN([C@H](C)CO)C(=O)c2cc(NC(=O)c3ccncc3)ccc2O[C@@H](C)CCCCO[C@@H]1CN(C)C(=O)Nc1cccc2ccccc12 | i | i | + | +
CC(C)NC(=O)Nc1ccc2c(c1)C(=O)N([C@H](C)CO)C[C@@H](C)[C@@H](CN(C)S(=O)(=O)c1ccccc1)O2 | i | i | i | /
CCCCCCCCCCCCCCCC(=O)C1C(=O)OC(CO)C1=O (stereo unspecified) | i | i | i | i
CC(=O)Nc1ccccc1NC(=O)Cc1ccccc1[N+](=O)[O-] | i | i | i | i
COc1ccc(S(=O)(=O)N(C)C[C@@H]2Oc3c(NS(=O)(=O)c4cn(C)cn4)cccc3C(=O)N([C@H](C)CO)C[C@@H]2C)cc1 | i | i | i | i
COc1ccc2c(c1)C(=O)N(CCc1ccc(S(=O)(=O)NC(=O)NC3CCCCC3)cc1)C(=O)C2(C)C | i | i | i | i
CCOc1ccc(-c2cn(S(=O)(=O)c3cccc4nsnc34)nc2N)cc1 | i | i | i | i
